Ecoli growth – inhibitors of Escherichia coli growth. OD600, 23 h; active compounds read low. 0.21% of 330,000 active. OD600 absorbance (test concentration not listed);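 active = OD600 absorbance below the run mean of sample wells minus 3.6 SD, in any replicate, cut at about 0.56 in these data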;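 note: stock transfer was 300 nL into about 60 µL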
Vif TR-FRET – inhibitors of Vif binding to APOBEC3G peptide, primary screen, biochemical, TR-FRET, GST-Vif 1-94, biotin-A3G peptide, dose response retest (AID 1117319); TR-FRET GST-Vif / biotin-A3G peptide binding; higher % means a stronger effect; test concentration not given here; strong numbers were not always called active; one-dose inhibition, %; IC50 in µM for titrated hits; 0.57% of 260,000 active;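 active = above the screen mean plus three standard deviations and confirmed in dose response; inconclusive = results disagree or hit not tested in dose response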;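 note: Vif residues 1-94 fused to GST binding biotinylated APOBEC3G peptide 110-148; 0% = full assay without inhibitor and 100% = GST in place of GST-Vif; retest series ran down from 100 µM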
Beta2AR agonist – human beta-2 adrenergic receptor agonism by FAP. response, % (no concentration beside the values). 0.43% of 340,000 active. AID 504454. P07550. Am2.2-beta2AR cells, FAP receptor internalization, flow cytometry; reference of the scale not given here;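 active = response above a set limit, near 3 SD of response in nonfluorescent compounds, cut at about 42% in these data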;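 note: stock transfer was 100 nL into about 11 µL; a reference agonist was the positive control; negative values mostly stem from fluorescent compounds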
LANA-H2B inh – blocks KSHV LANA binding to histone H2A/H2B | Q9QR71 | cell-free LANA-H2A/H2B peptide, fluorescence polarization | inhibition, % (no concentration beside the values) | 0.6% of 320,000 active | AID 2629; in the data active = inhibition mostly above about 10%, no sharp cut-off; inactive = mostly below about 6.7%;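 note: stock transfer was 7.5 nL into about 10 µL; 0% = median of vehicle wells and 100% = median of positive control wells; one replicate is shown; the record names a cut of 25% in any replicate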
A1 inh – inhibitors of the anti-apoptotic protein A1, read as caspase activation. MEF A1-2A-BIM cells, Caspase-Glo 3/7 luminescence, 3 h; percent of clofoctol response, vehicle zero. caspase activation, % (no concentration beside the values). 0.066% of 330,000 active. AID 2462;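 active = over half of replicate activation scores above 10%, or exactly half above 10 with the replicate mean above 10; inconclusive = replicate mean below 10 yet half the replicates above 10; inactive = over half of replicates below 10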;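 note: wells of about 30 µL received 50 nL stock; many hits fall short of the cut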
HNF4A DNA FP – change in binding of human HNF4 alpha to DNA; P41235; HNF4a-FITC DNA binding, fluorescence polarization, 1 h; activity change, % at 10 µM; 0.3% of 360,000 active; AID 1224865; in the data active = activity change above about 30%, passing the limit was not always enough;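 note: controls were the assay level and a saturating level of protein; the project sought stronger binding though the title names inhibitors; some compounds called inactive have numbers as strong as hits; positive values seem to mean higher polarization but the record does not say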
Target sequence (P41235 whole entry, looked up): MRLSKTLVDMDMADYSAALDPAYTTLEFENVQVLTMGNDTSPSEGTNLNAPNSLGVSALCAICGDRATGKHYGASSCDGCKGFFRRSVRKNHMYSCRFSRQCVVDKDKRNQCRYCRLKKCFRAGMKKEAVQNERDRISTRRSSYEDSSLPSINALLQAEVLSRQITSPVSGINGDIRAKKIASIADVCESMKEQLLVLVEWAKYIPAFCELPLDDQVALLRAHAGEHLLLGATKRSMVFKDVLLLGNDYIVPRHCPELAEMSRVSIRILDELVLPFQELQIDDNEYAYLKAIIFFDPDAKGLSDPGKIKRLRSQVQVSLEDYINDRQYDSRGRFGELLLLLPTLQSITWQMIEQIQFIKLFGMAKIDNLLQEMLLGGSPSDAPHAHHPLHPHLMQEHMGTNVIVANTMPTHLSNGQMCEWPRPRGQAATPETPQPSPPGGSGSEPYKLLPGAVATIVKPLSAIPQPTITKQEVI
UCH37 inh – human UCH37 deubiquitinating enzyme inhibition; AID 588478; 0.33% of 330,000 active; purified proteasome/UCH37, Ub-AMC cleavage fluorescence; Q9Y5K5; inhibition, % (no concentration beside the values);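 active = mean of two replicates above 20%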;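 note: 0% = compound-free wells with enzyme and 100% = wells lacking proteasome; stock transfer was 100 nL into about 20 µL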
Target sequence (Q9Y5K5 whole entry, looked up): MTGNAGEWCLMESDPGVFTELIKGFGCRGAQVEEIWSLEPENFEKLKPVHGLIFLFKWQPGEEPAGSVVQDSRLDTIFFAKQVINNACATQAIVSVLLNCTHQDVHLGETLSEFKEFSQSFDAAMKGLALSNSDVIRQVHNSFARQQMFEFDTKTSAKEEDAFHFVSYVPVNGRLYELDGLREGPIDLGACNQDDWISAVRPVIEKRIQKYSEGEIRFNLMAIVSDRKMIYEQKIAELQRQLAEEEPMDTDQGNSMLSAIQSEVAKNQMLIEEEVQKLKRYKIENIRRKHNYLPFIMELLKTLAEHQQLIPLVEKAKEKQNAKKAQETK
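system = Proteasome-associated human UCH37 deubiquitinase | amount = 0.15 nM proteasome as dispensed | medium = pH 7.4 Tris-HCl (50 mM) with ovalbumin, ATP-MgCl2, DTT | incubation = 30 min preincubation with enzyme, 25 min cleavage at room temperature | detection = AMC fluorescence 355/460 nm | read-out basis = percent inhibition | controls = no-proteasome and no-compound wells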
Numbers without * were called inactive; u = inconclusive; x = no result given. Hits appear at their usual frequency; any-hit rate near 2.1%.

cpd	structure	Ecoli growth	Vif TR-FRET	Beta2AR agonist	LANA-H2B inh	A1 inh	HNF4A DNA FP	UCH37 inh
1	CCn1cc(C(=O)OCc2ccccc2)c(=O)c2ccc(C)nc21	0.61	1%	22	2.7	1.8	1.6	6.1
2	COc1ccc(OCC(=O)NCCNC(=O)c2ccncc2)cc1	0.7	4%	20	0.2	-0.1	-0.2	2.3
3	CC(=O)NN1C(=O)/C(=C2/Sc3ccccc3N2C)SC1=S	0.7	-11%	0	-3.0	-0.5	5.2	-0.6
4	Clc1ccccc1CSc1snnc1-c1ccccc1	0.64	1%	-3	2.7	-0.4	0.6	5.6
5	Cc1ccc(C)c(OCCC(=O)NNC(=O)c2ccccc2)c1	0.63	x	3	0.6	-0.1	0.3	-0.5
6	O=C1CC(C(=O)O)S/C(=N\N=C\c2ccc(Br)cc2)N1 (stereo unspecified)	x	-9%	5	2.1	-1.5	0.9	x
7	COc1ccccc1N1CCN(C(CNC(=O)c2ccc3c(c2)OCO3)c2cccnc2)CC1 (stereo unspecified)	0.72	-7%	4	-5.3	0.1	0.7	2.0
8	CCn1c(SCC(=O)Nc2ccc(N3CCOCC3)cc2)nnc1-c1ccc(OC)cc1	0.74	2%	-14	-4.7	1.2	-0.3	1.6
9	CCS(=O)(=O)N1Cc2ccccc2CC1C(=O)N1CCN(c2cccc(C)c2C)CC1 (stereo unspecified)	0.69	-3%	0	-0.8	0.7	0.7	2.4
10	CC(=O)c1cccc(NC(=O)c2sc3nc4n(c(=O)c3c2C)CCCC4)c1	0.7	x	2	-0.9	-1.4	6.8	-15
11	CC(C)CN(C(=O)CSc1nn(-c2ccc(Cl)cc2)c(=S)s1)C1CCS(=O)(=O)C1 (stereo unspecified)	0.7	7%	-3	-10	-0.3	1.0	0.1
12	CCN(C(=O)Cn1c(=O)oc2cc(S(=O)(=O)N3CCCC3)ccc21)c1ccc(OC)cc1	0.78	x	-1	-1.4	-0.1	4.2	4.6
13	CCc1ccc(/C=N/n2c(COc3ccccc3)n[nH]c2=S)cc1	x	-4%	-1	-0.2	0.3	2.5	x
14	COc1cccc(CNC(=O)CCSCc2ccccc2F)c1	0.7	-3%	9	-0.9	0.3	2.2	0.5
15	CCN(CC(=O)Nc1ccccc1C(F)(F)F)C(=O)CCSc1ccc(F)cc1	0.62	x	5	-2.5	0.6	-1.3	0.5
16	O=C(CCN1CCCCC1)N=Nc1c(O)[nH]c2ccccc12	0.68	x	-18	-1.8	-0.7	-1.3	1.2
17	CCCOCCc1nnc(N)s1	0.7	11%	-2	-5.4	0.1	-0.8	1.8
18	CCc1cc2cc(C)ccc2nc1SCC(=O)Nc1cc(C)on1	0.69	-6%	3	3.7	0.2	-0.4	1.9
19	CCCC(=O)Nc1ccc(Cc2ccc(NC(=O)CCC)c(C(=O)O)c2)cc1C(=O)O	0.65	-9%	4	6.5	0.2	2.6	2.1
20	Cn1c(=O)c(=O)n(C)c2cc(S(=O)(=O)NCCOc3ccccc3)ccc21	0.71	u	-6	-3.1	0.5	2.2	2.7
21	CC1(c2ccccc2)CC(C)(C)N2C(=O)/C(=C3\SC(=S)NC3=O)c3cccc1c32 (stereo unspecified)	x	x	-5	4.9	-0.8	-4.9	3.6
22	COc1ccc(OC)c(NC(=O)COC(=O)c2cc3c(s2)CCC3)c1	0.74	u	7	0.5	1.5	-55	0.9
23	COC(=O)CNC(=O)c1cccc(Cl)c1	0.66	-4%	6	4.5	-0.1	3.4	2.5
24	OCCC1CN(CC2CCCCC2)CCN1C1CCCC1 (stereo unspecified)	0.65	x	-8	3.4	-0.1	0.4	0.8
25	CC(Cc1ccccc1)C(=O)Nc1ccc(Br)cc1 (stereo unspecified)	0.66	-9%	-3	-7.2	0.6	-2.8	1.4
26	C=CCOc1ccc2c(CC)cc(=O)oc2c1C	0.7	9%	1	1.5	0.9	-0.2	-55
27	O=C(CSC1=NCCS1)NC1CCCC1	0.72	-4%	-1	6.5	0.3	-3.1	4.3
28	O=C(NCC1CCCO1)c1ccc(-c2cccc(C(F)(F)F)c2)o1 (stereo unspecified)	0.69	x	1	-0.1	-0.5	-1.2	0.7
29	O=C(c1ccc([N+](=O)[O-])cc1)N(Cc1ccc(Cl)cc1Cl)N1C(=O)CCCC1=O	0.7	7%	-3	0.5	1.2	-0.2	3.6
30	CCC(CO)NCc1ccc(OCC(=O)Nc2cccc(C(F)(F)F)c2)c(OC)c1 (stereo unspecified)	0.69	2%	-2	3.8	-0.6	1.1	0.1
31	CCOC(=O)c1nn(-c2ccccc2)c(=O)c2c(NC(C)=O)scc12	0.73	x	-11	0.8	0.7	6.7	-18
32	CCOC(=O)C(CC)/C(C)=N\NC(=O)c1ccccc1O (stereo unspecified)	x	-2%	7	6.3	0.2	-8.0	x
33	C=CCNC(=O)c1cc(C(=O)C(C)c2ncc(C(F)(F)F)cc2Cl)c[nH]1 (stereo unspecified)	0.67	3%	-13	-0.6	0.1	26	-0.1
34	Cc1[nH]n(-c2ccc(F)cc2)c(=O)c1/C=N/c1sc2c(c1C#N)CCCC2	x	11%	8	0.8	-1.0	8.6	x
35	CC(=O)c1ccc(N2CCN(C(=O)c3ccc4[nH]c(C)c(C)c4c3)CC2)cc1	0.65	x	11	-0.2	-0.4	3.4	5.2
36	NC(=O)CC[C@@H]1NC(=O)[C@@H]2CCCN2C(=O)c2cc([N+](=O)[O-])cc(I)c2NCCCC[C@@H](C(=O)NC(CC(=O)O)C(N)=O)NC1=O (stereo partly specified)	x	13%	-2	0.1	1.5	3.3	7.0
37	COc1ccccc1OCCCn1c(=O)sc2ccccc21	0.71	25%	0	-1.7	1.2	-5.2	3.1
38	O=C(CN1CCCN(Cc2ccc(F)cc2)S1(=O)=O)NC1CCCC1	0.65	x	1	0.5	-0.3	-1.5	1.4
39	CCOc1ccc(NC(=S)Nc2ccccc2C2(C)CC2)cc1	0.68	x	0	2.3	-0.5	-2.5	-2.5
40	CCOc1ccc(-n2c(SCC(=O)NCc3ccco3)nc3ccccc3c2=O)cc1	0.68	19%	-1	2.1	-0.2	2.7	1.9
41	O=C(Nn1c(Cc2ccccc2)nc2ccccc2c1=O)c1c(O)c2cccc3c2n(c1=O)CCC3	0.68	-10%	-4	2.9	-0.2	-0.2	-4.0
42	CC1=NN(c2nc3ccccc3[nH]2)C(=O)C1Cc1ccccc1 (stereo unspecified)	0.66	31%	0	0.2	0.4	0.8	-0.5
43	CCn1nc(NC(=O)C2CCCO2)c2cc3cccc(C)c3nc21 (stereo unspecified)	0.71	-10%	2	2.6	-0.3	2.5	-105
44	Cc1cnc(NC(=O)CC(C)c2ccccc2)s1 (stereo unspecified)	0.67	1%	-12	5.1	-0.3	3.9	2.0
45	COc1ccc(Cn2nnnc2C(c2cc3cc(C)ccc3[nH]c2=O)N2CCN(C)CC2)cc1 (stereo unspecified)	0.67	-11%	-2	-3.5	0.7	-0.2	-34
46	Cc1cc(C)c2oc(C(=O)NCCc3ccc(S(N)(=O)=O)cc3)cc(=O)c2c1	0.65	1%	1	-2.9	0.0	-0.3	5.6
47	O=S(=O)(Nc1cccc(-c2ccc(N3CCOCC3)nn2)c1)c1ccc(Cl)c(Cl)c1	0.66	0%	13	x	0.5	-0.5	2.9
48	COc1ccccc1NC(=O)C1CC(C)OC1=O (stereo unspecified)	0.68	x	-7	6.4	0.4	1.8	1.1
49	CCN(CC)C(=O)[C@H]1CC(CC(=O)NC/C=C(\C)CCC=C(C)C)C(=O)N2CCc3c([nH]c4ccccc34)[C@]12C (stereo partly specified)	0.71	1%	1	3.6	-0.4	2.2	5.3
50	CCOc1ccccc1C=NN1CCCCCC1	0.68	-2%	7	x	x	3.1	1.6
51	O=C(NCCOc1cccnc1)C1CCC(=O)N(Cc2ccccc2F)C1 (stereo unspecified)	0.71	x	10	2.1	-0.1	-2.9	-0.6
52	Cc1[nH]c2ccccc2c1C(=O)COC(=O)C1CCC1	0.7	-9%	-10	-8.7	0.5	-3.0	1.3
53	CCOc1ccc(NC(=O)N(Cc2ccc(C)cc2)Cc2ccccn2)cc1	0.66	-7%	-3	-1.9	-0.1	-1.9	0.9
54	CC(C)(C)NC(=O)COC(=O)c1cc(Cl)ccc1[N+](=O)[O-]	0.65	-6%	-3	-1.4	-0.1	0.3	1.1
55	Nc1c(C(=O)C2CC2)sc2nc(-c3ccccc3)cc(C(F)(F)F)c12	0.73	-2%	-576	-2.1	-0.2	-93	3.8
56	O=C(COC(=O)c1ccc(S(=O)(=O)N2CCOCC2)cc1)NCc1ccccc1	0.7	x	-4	-8.2	0.8	1.9	3.1
57	O=C(CO/N=C/c1ccccc1Cl)N1CCCc2ccccc21	x	13%	-3	-2.0	0.3	-1.0	x
58	O=C(c1cccs1)c1cn(CC(=O)N2CCc3ccccc3C2)c2ccccc12	0.72	-5%	-8	2.7	0.3	0.7	3.8
59	COc1cccc(C(=O)COC(=O)CCC(=O)NC2CCCCC2)c1	0.71	-6%	-5	-4.8	0.0	2.1	4.7
60	CCOC(=O)c1cc(-c2ccccc2)sc1NC(=O)CCN1C(=O)c2ccccc2C1=O	0.69	2%	-5	3.2	0.0	1.0	2.3

(further entries)
cpd	structure	Ecoli growth	Vif TR-FRET	Beta2AR agonist	LANA-H2B inh	A1 inh	HNF4A DNA FP	UCH37 inh
61	COCCn1c(SC(C)C(=O)NCC2CCCO2)nc2sc3c(c2c1=O)CCC3 (stereo unspecified)	0.71	9%	-1	-5.7	-0.6	-7.2	9.4
62	COC(=O)CSc1nc(N2CCOCC2)c2c(c1C#N)CC(C)(C)OC2	0.64	-24%	5	-1.3	-1.8	-1.5	4.7
63	Cc1cccc(C)c1NC(=O)CSc1ncnc2nc[nH]c12	0.66	7%	1	-1.1	-0.3	1.2	-0.1
64	Cc1ccc(C)n1-c1ccc(C(=O)NN)s1	0.72	5%	1	-8.4	0.8	2.2	5.2

Limited to Beta2AR agonist, A1 inh and Ecoli growth, for 2 of the compounds above:
nr	structure	Beta2AR agonist	A1 inh	Ecoli growth
38	O=C(CN1CCCN(Cc2ccc(F)cc2)S1(=O)=O)NC1CCCC1	1	-0.3	0.65
35	CC(=O)c1ccc(N2CCN(C(=O)c3ccc4[nH]c(C)c(C)c4c3)CC2)cc1	11	-0.4	0.65

Screening results from PubChem BioAssay.
